# From PubChem BioAssay
# LASV entry inh – blocks Lassa virus binding to or entry into cells. Lassa virus pseudotype entry inhibition, cell reporter; control for the full effect not named in the record. Potency, µM (series often up to 37.9 µM), for inactives: top-dose activity change, negative = inhibition, usual class: inhibitors. actives 1.2% (n = 300,000). AID 540256; active means well fitted inhibition curve with a large enough effect; inconclusive means small, poorly fitted or top-dose-only effect, or effect the other way; inactive means flat fitted curve, though single readings scatter; tested in HEK293 cells; further: on the % scale 0 is the no-effect control and ±100 the full control effect; nearly all actives have a fitted effect of over 50% in size; luciferase read-out
# NS1 inh – inhibitors of influenza NS1 protein function; S. cerevisiae slowed by influenza A NS1, growth recovery by OD600; Potency, µM (top dose mostly 46.1 µM), for inactives: top-dose activity, positive = more growth; actives 0.4% (n = 270,000); active means well fitted rising curve with a large enough effect; inconclusive means small, poorly fitted or top-dose-only effect; inactive means no such curve, though single readings can be large or run the other way; further: nearly all actives have a fitted effect of over 50% in size
#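 Recovery from NS1-induced slow growth read by OD600 in budding yeast switched to galactose assay medium (pH 6.0, -URA) at 1:100 dilution. Compound 23 nl per well; the matching strain lacking NS1 serves as control.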
# StopGo reporter – lowers the luciferase signal of an FMDV 2A StopGo reporter | AID 1159524 | actives 1.2% (n = 410,000) | Potency, µM (highest dose often 57.9 µM), for inactives: top-dose signal change, negative = less light | human cells with a luciferase reporter of 2A StopGo recoding; control for the full effect not named in the record; active = well fitted falling curve with a large enough effect; inconclusive = small, poorly fitted or top-dose-only effect; inactive = no such curve, though single readings can be large or run the other way; tested in HEK293T cells; further: on the % scale 0 is the no-effect control and ±100 the full control effect; nearly all actives have a fitted effect of over 45% in size; luciferase light after 4 h
# SARS PLpro yeast – SARS-CoV PLP inhibition in yeast; S. cerevisiae expressing SARS-CoV PLpro, growth rescue; control for the full effect not named in the record; Potency, µM (top dose mostly 32.9 µM), for the others: at the highest dose activity, positive = growth rescue; actives 0.19% (n = 330,000); active means well fitted rising curve with a large enough effect; inconclusive means small, poorly fitted or top-dose-only effect; inactive means no such curve, though single readings can be large or run the other way; further: 0% is about no effect; nearly all actives have a fitted effect of over 55% in size; growth read by luminescence after 48 h
# Marburg entry inh – Marburg virus entry inhibition. Marburg virus pseudotyped entry inhibition, cell reporter; control for the full effect not named in the record; about a third of the inactives were read at about 46 µM. Potency, µM (highest dose often 37.8 µM), for inactives: top-dose activity change, negative = inhibition, actives largely listed as inhibitors. actives 1.8% (n = 300,000). AID 540276; active = well fitted inhibition curve with a large enough effect; inconclusive = small, poorly fitted or top-dose-only effect, or effect the other way; inactive = flat fitted curve, though single readings scatter; tested in HEK293 cells; about a fifth of its hits are not listed in these tables; further: on the % scale 0 is the no-effect control and ±100 the full control effect; luciferase read-out
# Cruzain noTriton – inhibitors of Trypanosoma cruzi cruzain without detergent | purified cruzain, Z-FR-AMC fluorescence, no detergent | actives 2.3% (n = 200,000) | P25779 | Potency, µM, inactives show max response, negative = inhibition, most hits filed as inhibitors;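 further: plate controls were enzyme without inhibitor for no effect and buffer without enzyme for full effect; nearly all actives have a fitted effect of over 40% in size; top concentration of the series not given in the record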
# Target sequence (P25779 123-467 limits assumed): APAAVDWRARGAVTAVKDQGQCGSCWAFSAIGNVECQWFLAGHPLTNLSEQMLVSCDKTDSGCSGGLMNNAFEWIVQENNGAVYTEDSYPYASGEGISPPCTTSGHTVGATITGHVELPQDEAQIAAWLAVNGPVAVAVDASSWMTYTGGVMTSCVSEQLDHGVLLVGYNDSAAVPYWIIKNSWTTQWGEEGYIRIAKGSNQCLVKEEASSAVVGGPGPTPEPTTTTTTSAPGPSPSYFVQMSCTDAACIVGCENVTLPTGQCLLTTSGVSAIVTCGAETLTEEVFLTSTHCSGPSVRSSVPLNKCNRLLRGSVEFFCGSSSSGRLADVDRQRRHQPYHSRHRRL
#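 Purified cruzain at 1.5 nM, pre-incubated 15 min with compound at room temperature in 100 mM sodium acetate pH 5.5, 5 mM DTT, 0.00005% Triton X-100. Reaction started with 2 uM Z-FR-AMC; AMC fluorescence increase over 60 s gives rate.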
# RE007 growth inh – less growth of the S. pombe RE007 Vpr strain; S. pombe RE007 Vpr strain, BacTiter-Glo ATP luminescence, 24 h; control for the full effect not named in the record; Potency, µM (doses to about 92.2 µM), without a hit: top-dose activity change, negative = less growth; actives 0.21% (n = 360,000); AID 651644; active = well fitted falling curve with a large enough effect; inconclusive = small, poorly fitted or top-dose-only effect; inactive = no such curve, though single readings can be large or run the other way;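 further: on the % scale 0 is the no-effect control and ±100 the full control effect; nearly all actives have a fitted effect of over 50% in size; the assay follows cell death caused by Vpr and the record does not say whether a fall means rescue or toxicity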
#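 Fission yeast strain RE007, carrying one chromosomally integrated HIV-1 vpr copy, was seeded at OD 0.01 in PMG+AL medium with 23 nL pinned compound. After 24 h at 30 °C and 99% humidity, viability was read by BacTiter-Glo luminescence.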
# Cruzain Triton – cruzain (T. cruzi) inhibition with detergent | purified cruzain, Z-FR-AMC fluorescence, 0.01% Triton | actives 0.43% (n = 200,000) | Potency, µM, without a hit: max response, negative = inhibition, actives largely listed as inhibitors;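 further: plate controls were neutral wells for no effect and buffer without enzyme for full effect; nearly all actives have a fitted effect of over 40% in size; top concentration of the series not given in the record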
#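 Read-out: AMC fluorescence (360 nm excitation, 450 nm emission), four reads over 2 min, first-to-third difference used. Conditions: cruzain 1.5 nM, Z-FR-AMC 2 uM, pH 5.5 acetate, 5 mM DTT, 0.01% Triton X-100.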
# Numbers without * were called inactive; ? = inconclusive; / = no result given; & = joins results of further samples; [ ] = dose if it differs, or a comment. Unless noted, the call rests on the fitted dose curve; in most records, active means well fitted curve in the direction sought with a large enough effect; inconclusive means small, poorly fitted or top-dose-only effect, or another doubt; inactive means no such curve, though single readings can be large; an effect the other way counts as inactive or inconclusive. Potency means the concentration at half of the fitted maximal effect.
canonical_smiles	LASV entry inh	Marburg entry inh	RE007 growth inh	SARS PLpro yeast	Cruzain noTriton	StopGo reporter	NS1 inh	Cruzain Triton
O=C(N/N=C/c1ccc(-c2cccc(C(F)(F)F)c2)o1)c1ccccc1O	1%	-20%	3%	17%	10µM*	?	-2%	-6.4%
CCN(CC)CCCCN1c2ccccc2Sc2ccccc21	?	11µM*	-29%	-1%	/	?	0%	/
COc1cccc(-c2nc(CS(=O)(=O)CC(=O)Nc3ccccc3Br)c(C)o2)c1	-16%[46.1 µM]	?	6%	0%	/	-26%	-6%	/
O=[N+]([O-])c1ccccc1S(=O)(=O)N1CCN(CC2CC3C=CC2C3)CC1 (stereo unspecified)	22%[46.1 µM]	25%[46.1 µM]	-2%	0%	/	-2%	-6%	/
CCCCn1c(N)c(N(CC(C)C)C(=O)CC2CCCCC2)c(=O)[nH]c1=O	0%[46.1 µM]	-7%	-5%	0%	/	-3%	/	/
CC(Sc1nnnn1-c1ccccc1)C(=O)Nc1ccccc1-c1ccccc1 (stereo unspecified)	-6%	?	24%	5%	8%	-1%	?	-1.6%
O=c1[nH]c(=O)c2[nH]c(=S)n(-c3ccccc3)c2[nH]1	8%[46.1 µM]	11%[46.1 µM]	-8%	/	/	-3%	/	/
COc1ccc(NC(=O)Cn2c(=O)n(-c3cccc(C)c3)c(=O)c3c2c2cc(C)ccc2n3C)cc1Cl	?	-10%[46.1 µM]	/	/	-6%	-14%	/	0.0%
COC(=O)CNC(c1ccccc1)c1cc(C)ccc1NC(=O)CNC(=O)OCc1ccccc1 (stereo unspecified)	?	-16%	1%	-5%	3%	3%	-26%	0.4%
CCOC(=O)c1cnc2c(cnn2C)c1NCCCn1ccnc1	-12%	-14%[46.1 µM]	-3%	0%	/	4%	5%	/
COc1ccc(OC)c(NC(=O)C(=O)NCCC2=CCCCC2)c1	0%	?	-2%	9%	-6%	-16%	-5%	-6.9%
CCc1cc2c(NC(C(=O)O)C(C)C)ncnc2s1 (stereo unspecified)	0%	4%	-15%	7%	-4%	-6%	-1%	2.6%
COc1cc2c(cc1NC(=O)/C=C/c1ccccc1)oc1ccccc12	?	?	-3%	-1%	?	/	6%	0.5%
CC(C)n1cnc2c(N(C)c3cccc(Cl)c3)nc(N(CCO)CCO)nc21	/	/	7%	2%	/	-23%	-10%	/
CC(=O)CC1OC(=O)C(Br)=C1NCc1ccccc1 (stereo unspecified)	?	18µM*	?	-10%	-6%	/	-1%	1.6%

# The list goes on.
canonical_smiles	LASV entry inh	Marburg entry inh	RE007 growth inh	SARS PLpro yeast	Cruzain noTriton	StopGo reporter	NS1 inh	Cruzain Triton
COc1ccccc1-c1nnc(SCC(=O)OC(C)C)o1	-4%	8%	0%	/	-10%	32%[activator]	-17%	-2.0%
CCOC(=O)c1[nH]c(C)c(C(=O)OCC(=O)N(CC)C2CCS(=O)(=O)C2)c1C (stereo unspecified)	-8%	11%[46.1 µM]	-3%	-7%	12%	-4%	-1%	6.5%
Cc1ccc(S(C)(=O)=O)cc1C(=O)OCC(=O)N1CCCC1=O	?	-9%	-11%	2%	/	-17%	/	/
CCN(CCCNC(=O)C1CCCN(S(=O)(=O)CC)C1)c1cccc(C)c1 (stereo unspecified)	-7%	-12%	-10%	1%	4%	-8%	?	5.2%
CC(C)OC(=O)c1cccc(NC(=O)c2ccccc2)c1	1%	0%	-26%	-25%	-14%	-5%	-12%	-5.7%
COc1ccccc1-c1ccc(SCC(=O)N2CCOCC2)nn1	-7%	?	3%	0%	/	-4%	/	/
CCOc1ccc(NC(=O)CSc2nccn2Cc2ccco2)cc1	15%	8%&8%	2%	2%	3%	22%&30%	0%	-1.1%
Cc1ccc(S(=O)(=O)NCCc2cc3ccc(C)cc3[nH]c2=O)cc1	-7%[46.1 µM]	?	-4%	1%	/	9%	0%	/
CCCC(=O)NC(Oc1ccc(C(C)=O)cc1)C(Cl)(Cl)Cl (stereo unspecified)	?	14%[46.1 µM]	-15%	0%	/	11%	2%	/
CCc1nnc(NC(=O)CCC(=O)NC2CCCCCCC2)s1	/	/	10%	-1%	/	-5%	-1%	/
COc1ccc(OC)c(CNC(=O)c2cc3ccc4cccnc4c3[nH]2)c1	7%[46.1 µM]	/	/	/	-6%	-2%	/	-8.3%
O=C(N/N=C/c1ccc(F)cc1)c1cc(-c2ccco2)nc2ccccc12	?	-12%	0%	-4%	1%	4%	-4%	-30%
CN(C)c1cccc2c(S(=O)(=O)Nc3ccccn3)cccc12	-7%	1%[46.1 µM]	9%	-4%	4%	49%[activator]	-7%	-8.2%
Cc1ccc(S(=O)(=O)N2CCCCC2C(=O)NCc2ccco2)cc1 (stereo unspecified)	?	7%	8%	-1%	-5%	-5%	2%	0.2%
COc1cccc(-n2nnc3c(=O)n(CC(=O)N4CCC(Cc5ccccc5)CC4)cnc32)c1	18%	8%	-12%	-2%	?	?	6%	-1.4%

# Continued.
canonical_smiles	LASV entry inh	Marburg entry inh	RE007 growth inh	SARS PLpro yeast	Cruzain noTriton	StopGo reporter	NS1 inh	Cruzain Triton
CCOC1OC(=O)C(Cl)=C1Nc1cc(C)ccc1C (stereo unspecified)	1%	15%[46.1 µM]	5%	-9%	/	2%	/	/
COC(=O)c1ccccc1NC(=O)C(=O)NCC1CCCO1 (stereo unspecified)	10%	?	?	7%	-6%	5%	2%	-1.8%
COc1ccc(Br)cc1CN(C)CC(=O)Nc1cccc(S(N)(=O)=O)c1	-14%	?	-6%	0%	/	10%	/	/
O=C1C(=O)N(CCO)C(c2ccc(Br)cc2)/C1=C(\O)c1ccccc1 (stereo unspecified)	/	/	-3%	-3%	/	-17%	12%	/
COC(=O)c1ccccc1NC(=O)Cn1c(=O)n(-c2ccc(C)cc2)c(=O)c2ccccc21	-19%[46.1 µM]	?	/	/	-11%	-9%	/	-4.7%
O=C(O)CC1(CC(=O)Nc2ccc3ccccc3n2)CCCCC1	-13%	7%[46.1 µM]	3%	0%	/	10%	3%	/
CCOC(=O)CN1C(=O)C(Sc2n[nH]c(-c3ccc(O)cc3)n2)CCc2ccccc21 (stereo unspecified)	-5%	?	-5%	9%	-2%	0%	-2%	0.5%
Cc1ccc(CS(=O)(=O)CC(C)(O)c2ccc(Cl)cc2)cc1 (stereo unspecified)	?	23%[46.1 µM]	3%	0%	/	-10%	-6%	/
O=C(O)C1Cc2c([nH]c3ccccc23)C(c2ccc3c(c2)OCO3)N1 (stereo unspecified)	12%	12%	1%	0%	-15%	/	5%	-6.2%
CC(=O)NC(Cc1ccc(N(CCCl)CCCl)cc1)C(=O)NCC(=O)NCC(=O)O (stereo unspecified)	?	?	-21%	1%	/	7%	3%	/
Cc1ccc(C)c(OCCn2c(=O)c3c(ncn3C3CCCC3)n(Cc3ccccc3)c2=O)c1	2%	5%	9%	-23%	-5%	-27%	24%	-4.8%
CCC(C)(C)c1ccc(OCCCC[n+]2cccc(C)c2)c(C(C)(C)CC)c1	?	?	?	-20%	/	32µM*	/	/
CCOc1ccc(-c2nnc3ccc(SCC(=O)Nc4cc(C)on4)nn23)cc1	-7%[46.1 µM]	-24%[46.1 µM]	0%	0%	/	19%	/	/
Cc1cccc(-c2nnc(SCc3ccccc3)o2)c1	16%	10%	?	-6%	2%	71%[activator]	-54%	1.6%
O=C(Nc1cccc(Br)c1)c1cccc(OC(=S)N2CCOCC2)c1	?	?	21%	-3%	/	?	-5%	/

# (cont.)
canonical_smiles	LASV entry inh	Marburg entry inh	RE007 growth inh	SARS PLpro yeast	Cruzain noTriton	StopGo reporter	NS1 inh	Cruzain Triton
CCOC(=O)N1CCN(C(=O)CN(c2cccc(C)c2)S(=O)(=O)c2ccccc2)CC1	-24%	9%	16%	4%	?	0%	-6%	0.1%
COC(=O)[C@@H](Cc1c[nH]c2ccccc12)NC(=O)CNC(=O)c1ccccc1OC	-1%	-14%[46.1 µM]	-12%	-1%	/	-6%	1%	/
O=C(O)c1cc(C(F)(F)F)nc2ccccc12	9%	8%	-4%	-14%	-4%&-6%	-11%	-8%	0.3%&-0.2%
CCNC(=O)CC1SC(=Nc2ccc(C)cc2)NC1=O (stereo unspecified)	0%	?	-9%	10%	-5%	-25%	19%	-1.1%
Cc1ccccc1OCCn1cc(/C=C(\C#N)C(=O)NCc2ccco2)c2ccccc21	19%	?	3%	26%	-15%	-22%	4%	0.6%
Cc1cccc(C)c1NC(=O)c1cccc(COc2cc(Cl)ccc2Cl)c1	3%	6%	23%	1%	?	18%	-1%	-1.1%
COc1cc(N)c(Cl)cc1C(=O)OCC(=O)N1c2ccccc2NC(=O)C1(C)C	-2%[46.1 µM]	-29%[46.1 µM]	9%	-8%	/	-12%	/	/
O=C(CSc1nnc(-c2cccnc2)n1-c1ccccc1)N1CCN(c2ccc(F)cc2)CC1	0%	-23%[46.1 µM]	5%	1%	5%	?	-5%	2.6%
Cc1ccc(NC(=O)CCC(=O)OC(C(=O)c2ccc(C)c(C)c2)c2ccccc2)c(C)c1 (stereo unspecified)	12%	-9%	-4%	2%	-2%	-7%	10%	-15%
Cc1nc2ccc(N)nc2nc1C	0%	19%	6%	/	/	-11%	/	/
O=C1c2ccsc2SCCN1Cc1c(Cl)cccc1Cl	2%	?	-17%	-30%	2%	-16%	5%	1.6%
Cc1ccc(NC(=O)c2ccc3c(c2)OCCO3)nc1	?	?	-17%	/	/	16µM*	/	/
Cc1onc(-c2ccccc2)c1CNS(=O)(=O)c1ccc(F)cc1F	/	/	11%	0%	/	15%	4%	/
CC(C)CNC(=O)c1oc2ccccc2c1COc1ccccc1	?	-20%[46.1 µM]	-17%	-30%	-5%	-14%	-55%	-4.3%
Cc1cc(C)c(S(=O)(=O)N2CCCOC2CNC(=O)C(=O)NCc2cccs2)c(C)c1 (stereo unspecified)	?	0%	/	-1%	1%	-7%	-10%	-4.5%
Cc1ccc(NC(=S)NC2CCN(Cc3ccccc3)CC2)cc1	3%	-16%	-12%	-23%	-3%	-24%	-6%	7.7%

# No enrichment for hits, and some 4.7% of all compounds hit somewhere here.
